HSV augment: increases HSV replication in cells; 0.005% of 220,000 active; maximum fold increase; HSV replication augmentation in cells, fold increase; AID 1956;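 active = peak rise of 1.5-fold or more in the series; inconclusive = self-fluorescent or not available for retest; tested in PC3 cells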;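 note: first round at 10 µM; read as green reporter fluorescence; hits show the peak of a series up to 25 µM; 1 = signal of infected wells without compound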
GALR2 agonist: activates the human galanin receptor 2; 0.48% of 140,000 active; O43603; GALR2-expressing cells, agonist activation read-out; activation, %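 (tested at 5 µM)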;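 active = above mean plus 3 SD of all compounds, about 5% in these data, not always enough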;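 note: 0% = vehicle buffer wells and 100% = reference agonist at full effect; tested in CHO reporter cells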
Target sequence (O43603 whole entry, looked up): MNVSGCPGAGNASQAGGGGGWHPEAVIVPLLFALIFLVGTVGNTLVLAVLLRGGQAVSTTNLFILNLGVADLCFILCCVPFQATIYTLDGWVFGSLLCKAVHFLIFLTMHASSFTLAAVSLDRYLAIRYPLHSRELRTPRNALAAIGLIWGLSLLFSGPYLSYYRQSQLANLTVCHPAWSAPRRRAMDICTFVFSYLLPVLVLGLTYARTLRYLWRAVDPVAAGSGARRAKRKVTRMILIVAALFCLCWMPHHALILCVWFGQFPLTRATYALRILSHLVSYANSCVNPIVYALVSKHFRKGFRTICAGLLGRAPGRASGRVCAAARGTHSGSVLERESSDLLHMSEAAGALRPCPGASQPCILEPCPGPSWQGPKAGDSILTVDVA
RGS16-Gao HTS: regulators of human RGS16-Galphao interaction; 0.38% of 220,000 active; binding response (% of control), % at 10 µM; O15492+P09471; bead-based flow cytometry RGS16-Galphao binding, fluorescence; actives lie on both sides;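 active = below 25% or above 175%, edge rows of some plates excepted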;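 note: Galphao activated by GDP with aluminum fluoride before binding; 100% = wells without compound and 0% = beads without RGS; some results beyond the cut were filed as inactive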
Target sequence (O15492 whole entry, looked up): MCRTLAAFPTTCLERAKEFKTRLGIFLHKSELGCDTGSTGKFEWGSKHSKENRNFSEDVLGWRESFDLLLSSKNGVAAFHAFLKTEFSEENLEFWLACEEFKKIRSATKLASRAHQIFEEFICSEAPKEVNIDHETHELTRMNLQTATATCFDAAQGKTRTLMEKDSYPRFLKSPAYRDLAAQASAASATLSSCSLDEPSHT
Target sequence (P09471 whole entry, looked up): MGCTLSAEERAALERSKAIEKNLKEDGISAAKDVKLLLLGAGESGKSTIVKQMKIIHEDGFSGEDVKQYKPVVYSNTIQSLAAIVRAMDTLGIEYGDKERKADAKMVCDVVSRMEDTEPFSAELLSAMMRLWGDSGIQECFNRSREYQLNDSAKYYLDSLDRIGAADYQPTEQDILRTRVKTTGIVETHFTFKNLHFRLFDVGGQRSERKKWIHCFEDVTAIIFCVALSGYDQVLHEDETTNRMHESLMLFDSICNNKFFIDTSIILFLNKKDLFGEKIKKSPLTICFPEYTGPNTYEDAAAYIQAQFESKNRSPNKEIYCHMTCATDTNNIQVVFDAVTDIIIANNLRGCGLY
Insulin prom inh: TRM-6 insulin promoter activity inhibition | inhibition, % at 2 µM | AID 1273 | 0.9% of 130,000 active | TRM-6 cells (human fetal islet line), insulin promoter-eGFP reporter, imaging; reporter expression induced with tamoxifen;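 active = inhibition above the mean plus 3 SD, with well images judged a real hit on visual review, cut at about 60% in these data, passing the limit was not always enough; inconclusive = inhibition over the cutoff but images rejected on review; inactive = inhibition not above the cutoff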
PKD1 kinase inh: PKD1 (human) kinase inhibition. PKD1 kinase fluorescence polarization assay. inhibition, %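 (about 10 µM by stock and volumes)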. 0.056% of 200,000 active;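 active = inhibition of 50% or more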;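 note: controls were vehicle for no effect and a reference inhibitor for full effect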
Insulin prom inh cell count: also measured in Insulin prom inh; calls as there; normalized cell count, %; measured here: cell count, toxicity; reference of the scale not given here;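 cells exposed to compound for 48 h; stained nuclei by imaging scaled within each plate; lower means fewer cells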
HSV augment primary fold: recorded beside HSV augment, whose call it bears; fold increase; compound at 10 µM; measured here: primary screen fold increase 10 uM; tested in PC3 cells;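 GFP signal in the first replicate; 1 = infected wells without compound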
* hit, by the source's call; i = inactive; u = inconclusive; x = not tested or not shown.

structure,HSV augment,Insulin prom inh cell count,Insulin prom inh,PKD1 kinase inh,RGS16-Gao HTS,GALR2 agonist,HSV augment primary fold
COc1cc(OC)nc(NC2OC(=O)c3ccccc32)n1 (stereo not given),i,88,47,-5,97,-2.1,0.99
O=C(NC1=NCCS1)c1ccc(OCC2CCCO2)cc1 (stereo not given),i,64,43,16,102,-1.1,1
O=C1C(c2ccc(F)cc2)N(Cc2ccc3c(c2)OCO3)C(=O)CN1C1CCCC1 (stereo not given),i,113,-35,3,137,-1.8,1
CC(C)=CCN1CCN(CCCn2cccn2)CC1CCO (stereo not given),i,x,x,-2,97,x,0.92
COc1ccc(S(=O)(=O)NC(C)C)cc1-n1cnnn1,i,x,x,-9,250,x,1.1
COc1ccc(CCC(=O)N/N=C\c2cccs2)cc1,i,x,x,-5,94,x,1.1
O=C(CCN1CCCCC1)NNC(=O)C12CC3CC(CC(C3)C1)C2,i,x,x,-2,101,x,1
CCC(C)NCCOCCOc1ccc(Cl)c(C)c1C (stereo not given),i,91,13,-4,102,0.8,0.72
COc1cccc(C2N(c3ccc(Cl)cc3)C(=O)C3CCCN32)c1 (stereo not given),i,x,x,-5,82,-1.9,1.2
COC(=O)C1=C(N)OC2=C(C(=O)CCC2)C1c1cccs1 (stereo not given),i,71,55,0,115,0.7,0.99
Cc1ccc(OCc2nc(C#N)c(NCc3ccco3)o2)cc1,i,65,13,-5,103,-0.8,1.1
O=C(Cn1ccsc1=NC(=O)C(F)(F)F)c1ccccc1,i,x,x,8,100,0.6,1

One compound at a time, as listed above. Screens in order: HSV augment, Insulin prom inh cell count, Insulin prom inh, PKD1 kinase inh, RGS16-Gao HTS, GALR2 agonist, HSV augment primary fold
O=C(CCN1CCCCC1)NNC(=O)C12CC3CC(CC(C3)C1)C2 in the list: i, x, x, -2, 101, x, 1
COc1cc(OC)nc(NC2OC(=O)c3ccccc32)n1 (stereo not given) in the list: i, 88, 47, -5, 97, -2.1, 0.99

(listing goes on)
structure,HSV augment,Insulin prom inh cell count,Insulin prom inh,PKD1 kinase inh,RGS16-Gao HTS,GALR2 agonist,HSV augment primary fold
Cc1oc2c(C)c(O)ccc2c(=O)c1N1C(=O)c2ccccc2C1=O,i,110,-19,-17,99,0.7,1
Cn1c2c(c(=O)n(C)c1=O)C(CC(=O)Nc1ccccc1)C(=O)N2 (stereo not given),i,111,-24,-3,24,-0.8,0.82
Cc1cc(C)n2nc(C(=O)N3CCN(c4ccc([N+](=O)[O-])cc4)CC3)nc2n1,i,x,x,-5,100,x,0.93
CCOC(=O)c1c(NC(=O)C2COc3ccccc3O2)sc2c1CCN(Cc1ccccc1)C2 (stereo not given),x,x,x,-4,100,-0.6,x
Cc1cc(Nc2ccccc2)nc(-c2ccccc2O)n1,i,131,64,-5,86,-1.6,0.81
O=C1C(=O)N(CC(=O)N2CCCC2)c2ccccc21,i,x,x,-3,99,x,1
O=C(Cc1ccc(Br)cc1)Nc1ccccc1Cl,i,104,-8,8,108,-0.3,0.75
CCOC(=O)c1sc2nc(N3CCCC3)c3c(c2c1N)CC(C)(C)OC3,i,73,-36,-5,100,0.6,0.84
Cc1ccc(/C=C2\C(=O)ON=C2c2ccccc2)o1,i,132,-6,0,97,x,1
COc1cc(S(=O)(=O)NCCN2CCOCC2)c(OC)cc1Cl,i,108,3,1,99,-2.4,1
CCOC(=O)N1CCN(C(=O)c2ccc(S(=O)(=O)c3ccc(C)cc3)c(NC(C)=O)c2)CC1,i,116,38,3,101,-1.2,1
O=C(Nc1ccc2c(c1)nc1n2CCN(C2CCCCC2)C1)NC1CCCCC1,i,x,x,-10,106,-1.2,1
COc1cc(CCC(=O)O)on1,i,x,x,x,-8.1*,x,1
Cc1cccc(N=C2CSC(=O)N2)c1,i,97,8,1,94,x,0.94
O=C(Nc1nc2c(cc3c4c(cccc42)CC3)s1)c1ccccc1Cl,u,x,x,4,112,-0.8,x
CCc1nnc(NC(=O)c2ccc(S(=O)(=O)N3CCN(Cc4ccccc4)CC3)cc2)s1,i,107,-30,-2,102,0.2,0.91
O=C(Oc1cccc(Nc2ncnc3ccccc23)c1)c1ccccc1Cl,i,111,22,6,104,-1.5,0.98
COc1ccc(/C(O)=C2/C(=O)C(=O)N(CC3CCCO3)C2c2cccc(OC)c2)cc1 (stereo not given),i,107,-3,-1,104,-1.5,0.99
CCC1=NN2C(=N)/C(=C\c3cccn3-c3c(C)cccc3C)C(=O)N=C2S1,i,x,x,1,107,x,0.81
O=C(NCCN1CCOCC1)c1ccc2c(c1)N(Cc1ccccc1F)C(=O)c1ccccc1S2,i,x,x,-6,99,x,0.87
Cc1ccc(S(=O)(=O)NC(CC(=O)NCC2CCCO2)c2ccco2)cc1 (stereo not given),i,63,-58,-6,98,-1.6,0.85
CN(CC(O)COCc1ccccc1F)C1CCCCC1 (stereo not given),i,x,x,x,95,x,1
CCNC(=O)c1ccccc1CCc1ccccc1,i,109,-5,-5,97,x,0.94
Cc1noc(C)c1CSc1nc2[nH]ncc2c(=O)n1-c1ccccc1,i,12,-72,7,98,2.1,0.85
Cc1cc(N2CCN(C)CC2)nc2ccc(NC(=S)NCCCN3CCc4ccccc4C3)cc12,i,x,x,-3,103,x,0.81
O=S(=O)(/N=C(/Nc1cccc2ccccc12)c1ccccc1)c1cccs1,i,42,10,-11,108,-0.3,1
C=CCNc1nc(N2CCOCC2)nc(N2CCOCC2)n1,i,107,-31,0,109,-2.1,1
COc1cccc(C(=O)Nc2cc(-c3cn4cccnc4n3)ccc2C)c1,i,x,x,-6,105,x,1.1
Cn1nc(C(=O)N2CCc3ccccc32)c2ccccc2c1=O,i,x,x,-8,99,x,0.87
CN(CC(O)COc1ccc(S(=O)(=O)N2CCOCC2)cc1Cl)C1CCCCC1 (stereo not given),u,x,x,x,99,x,x
CC(CCc1ccccc1)NC(=O)C(=O)N1CCOCC1 (stereo not given),i,129,53,-7,107,x,0.95
Cc1ccc(C(=O)N2CCN(C(=O)c3ccc(C)c(C)c3)C(C)C2)cc1C (stereo not given),x,63,-400,-9,x,1.7,x
Cc1ccc(N2C(=O)c3cccc4cccc(c34)C2=O)cc1,i,x,x,-11,101,x,0.99
O=C(CN1CCN(S(=O)(=O)c2ccccc2)CC1)Nc1ccccc1C(=O)c1ccccc1,i,128,-48,4,102,0.0,1.1
N#C/C(=C\c1ccc(Sc2ccccc2)o1)c1nc2ccccc2[nH]1,i,157,50,2,100,0.4,1.1
Cc1ccccc1NNC(=O)C(=O)NNc1ccccc1C,i,x,x,x,98,x,1.1

Taken from above:
Reading for Cc1ccccc1NNC(=O)C(=O)NNc1ccccc1C under RGS16-Gao HTS: 98
Reading for CC(CCc1ccccc1)NC(=O)C(=O)N1CCOCC1 (stereo not given) under PKD1 kinase inh: -7

Part of the list above, with values under each structure.
Below each compound: HSV augment	Insulin prom inh cell count	Insulin prom inh	PKD1 kinase inh	RGS16-Gao HTS	GALR2 agonist	HSV augment primary fold
N#C/C(=C\c1ccc(Sc2ccccc2)o1)c1nc2ccccc2[nH]1
    i	157	50	2	100	0.4	1.1
COc1cccc(C(=O)Nc2cc(-c3cn4cccnc4n3)ccc2C)c1
    i	x	x	-6	105	x	1.1
O=S(=O)(/N=C(/Nc1cccc2ccccc12)c1ccccc1)c1cccs1
    i	42	10	-11	108	-0.3	1

(further entries)
structure,HSV augment,Insulin prom inh cell count,Insulin prom inh,PKD1 kinase inh,RGS16-Gao HTS,GALR2 agonist,HSV augment primary fold
c1ccc2sc(NN=C3CCCCCC3)nc2c1,i,x,x,5,100,x,0.95
Cc1nc(SCCOc2ccccc2F)[nH]c(=O)c1Cc1ccccc1,i,103,0,-11,98,x,0.94
COc1ccccc1NC(=O)Cn1nc(-c2ccc(Cl)cc2)c2ccccc2c1=O,i,75,28,0,98,-0.2,1.1
O=C(COC(=O)CCCSc1nc2ccccc2[nH]1)Nc1cccc(F)c1,i,x,x,-3,102,-0.9,0.97
O=C1NN=C(c2ccccc2)CC1c1c[nH]c2ccccc12 (stereo not given),i,x,x,-2,103,x,0.88
Cc1cccc(OCC(=O)Nc2ccccc2-c2ccccc2)c1,i,81,-17,-11,107,-0.4,1
COc1cc(/C=C/C(C)=O)cc(OC)c1OC,i,56,11,-6,90,-1.6,0.97
COc1ccc(-c2nc(CN(CC3CCC(=O)N3)C(C)C)c(C)o2)c(C)c1C (stereo not given),i,73,-8,-5,103,x,0.98
CCCc1nc2scc(-c3ccccc3)c2c(=O)n1N,i,73,-188,-6,121,-1.2,0.92
Cc1onc(C(=O)NN)c1-c1csc(COc2ccc(Cl)cc2)n1,i,x,x,x,97,x,1
CC(C)Sc1nc2c([nH]1)c(=N)ncn2Cc1ccccc1,i,118,25,0,104,x,0.93
CCc1cc2ccc(C)cc2nc1SCC(=O)NNC(=O)c1ccco1,i,x,x,-1,85,-0.2,0.92
CCc1nnc(NC(=O)CSc2ncnc3scc(-c4ccc(C)cc4)c23)s1,i,x,x,2,101,-1.6,0.89
S=C(NCC1CCCO1)N1CCN(c2cccc(Cl)c2)CC1 (stereo not given),i,92,-45,0,95,x,1.1
Cc1cccc(-c2c3c(=O)n(C)c(=O)n(C)c3c3cccnn23)c1,i,114,-12,1,107,-0.3,0.86
CCS(=O)(=O)N1CCN(CC2CC3C=CC2C3)CC1 (stereo not given),i,90,-36,-6,99,-1.7,1.1
O=C(Nc1ccc([N+](=O)[O-])cc1)C1(c2ccccc2)CCOCC1,i,130,-32,-5,107,0.0,0.85
OC(CCCN1CCC(O)(c2ccc(Cl)cc2)CC1)c1ccc(F)cc1 (stereo not given),i,46,-71,-3,99,-1.7,0.9
CC(/C=N/NC(=O)Cc1cc(=O)[nH][nH]1)=C\c1ccccc1,i,62,-9,-1,79,0.8,1
Cc1ccc(SCC2(O)CCN(C(=O)c3ccc(Cl)cc3)CC2)cc1,i,92,-28,1,95,-1.2,1
CCOc1ccc(C2C(C(=O)c3cccs3)=C(O)C(=O)N2Cc2cccnc2)cc1OC (stereo not given),i,109,43,1,102,x,1.1
Cc1cccc(Nc2nc(-c3ccncc3)cs2)c1,i,x,x,4,98,x,0.79
COc1ccc(-n2nc([N+](=O)[O-])c(=NCc3ccc4c(c3)OCO4)n2O)cc1,i,69,15,0,17,-2.2,0.93
COc1cccc(NC(=S)N(CCN(C)C)C(C)c2cccnc2)c1 (stereo not given),i,87,18,5,97,x,1.1
CCOC(=O)CS(=O)(=O)c1nc(-c2ccccc2)cc(C(F)(F)F)n1,i,43,47,2,107,7.2,0.67
O=C1/C(=C/Nc2cccc([N+](=O)[O-])c2)CCc2ccccc21,i,91,-17,1,101,-1.3,1
O=c1[nH]c(=O)n(CCOc2ccc(Cl)cc2)cc1Br,i,x,x,1,100,0.9,0.82
COc1cc(-c2noc(CCCC(=O)NCc3ccccc3)n2)cc(OC)c1OC,i,184,-54,4,98,-0.9,0.95
CCOc1ccc2c(c1)C(N(CCN1CCOCC1)C(=S)Nc1ccccc1OC)CC(C)(C)O2 (stereo not given),i,60,-80,-3,102,x,1.1
O=C(COC(=O)c1ccc(Br)cc1)NCc1ccccc1,i,x,x,-3,102,-0.2,1
Cc1cc(C)nc(NC(=O)CSc2nn(-c3ccccc3)c(=S)s2)n1,i,x,x,x,87,x,1.1
O=C(O)CC12CC3CC(C1)CC(n1ncc(NCc4ccc5c(c4)OCO5)c(Cl)c1=O)(C3)C2,i,107,-7,9,103,x,0.66
CCC(C)Oc1ccccc1C1CC(=O)NC2=C1C(=O)CCC2 (stereo not given),i,94,-24,-9,98,-0.7,0.88
O=C(Cn1cnc2c(nnn2Cc2ccc(Cl)cc2)c1=O)N1CCN(c2ccccc2)CC1,i,x,x,6,124,x,0.96
O=C(NCCC1=CCCCC1)C1CCCN(S(=O)(=O)c2cnc[nH]2)C1 (stereo not given),i,x,x,-4,78,-1.8,1
Cc1cc(C)n2nc(SCC(=O)Nc3ccccc3)nc2n1,i,66,5,-1,100,x,0.95
CCc1nnc(NC(=O)c2cc(OC)c(OC)cc2[N+](=O)[O-])s1,i,x,x,-8,99,x,1.1
O=c1cc(-c2ccccc2)nc2nc[nH]n12,i,110,21,-6,103,-1.8,0.88
